Compound activity from PubChem.
miR-21 reporter – raises the signal of a miR-21 reporter; Potency, µM (top dose mostly 38.3 µM), without a hit: at the highest dose reporter change, positive = more light; HeLa miR-21 FLuc reporter, luciferase, 48 h; 340,000 tested, under 10 active; AID 2288; active = well fitted rising curve with a large enough effect; inconclusive = small, poorly fitted or top-dose-only effect; inactive = no such curve, though single readings can be large or run the other way;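 also: % of control where 0% means no effect; miR-21 action dims this reporter so a rising signal means less miR-21 action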
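Luminescence from a firefly luciferase reporter carrying a miR-21 binding site downstream, stably expressed under a CMV promoter in HeLa cells that make miR-21 endogenously, reports miRNA modulation after 48 h compound exposure up to approximately 40uM final.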
* hit, by the source's call; u = inconclusive.

SMILES | miR-21 reporter
Cc1cc(NC(=O)C(C)C)cc(-c2nc3ncccc3o2)c1O | 0.0%
Cc1ccc(C)c(NC(=O)Cn2c(=O)n(CCCS(=O)(=O)C3CCCCC3)c(=O)c3ccccc32)c1 | 5.1%
COc1ccccc1N1CCN(C(=O)C2CCN(S(=O)(=O)c3cccc4nonc34)CC2)CC1 | 6.9%
COc1ccc(-c2ccc(NS(=O)(=O)c3ccccc3)cc2)nn1 | -9.5%
Cc1oc2c(c1C(=O)Nc1ccc(OC(F)(F)F)cc1)C1=NCCN1C=N2 | -2.4%
CC1CCCCN1CCCNC(=O)Cn1ncc2c3ccccc3n(C)c2c1=O (stereo not given) | 0.2%
CCOC(=O)c1c(NC(=O)CSc2cn(CCNC(=O)c3ccc(OC)cc3)c3ccccc23)sc2c1CCCC2 | 15.6%
O=C(CSc1n[nH]c(-c2ccccc2)n1)N1CCN(c2ccccc2F)CC1 | -6.9%
N#Cc1c(-n2ncnc2-c2ccc(Br)cc2)sc2c1CCCCC2 | -52.1%
COc1ccc(NC(=O)CSc2nnc(NC(=O)NC3CCCCC3)s2)cc1OC | -29.8%
CCOCCCN(Cc1ccco1)C(=O)c1cc2c(s1)-c1c(C)cccc1OC2 | 14.7%
Cc1cc(N)c(-n2cc3c(c2-c2ccc(Br)cc2)c(=O)n(C)c(=O)n3C)cc1C | -19.1%
COc1ccc(-c2nnc(SCC(=O)Oc3cc(C)ccc3C)o2)cc1 | 4.4%
Cc1cc(C(=O)C(=O)Nc2nncs2)c(C)n1-c1ccc(Cl)cc1 | -7.6%
CCOc1cc(CNCCSc2nnnn2C)ccc1OCc1ccc(Cl)cc1Cl | 20.5%
CCCCN1C(=O)c2[nH]nc(-c3ccccc3O)c2C1c1cccc(OCc2ccccc2)c1 (stereo not given) | u
O=S(=O)(NCCc1ccccc1)c1ccc(N2CCCCS2(=O)=O)cc1 | 7.0%
O=C(NCCc1csc(-c2ccc(C(F)(F)F)cc2)n1)c1ccc(F)c(F)c1 | u
COC(=O)CSCc1nc(-c2ccc(C(=O)OC)cc2)oc1C | u
CCN(CC)CCNC(=O)Cn1nc(C)c2c(C)n(-c3ccccc3)nc2c1=O | -3.4%
O=C(Nc1ccc(C(=O)OCc2cc(=O)n3nc(C4CC4)sc3n2)cc1)c1ccccc1 | -4.5%
CCOC(=O)c1cccc(NC(=O)CCCn2c(C)c3cnn(-c4ccccc4)c(=O)c3c2C)c1 | 20.2%
CCOCCCNC(=O)NC(CCC(C)C)c1c(-n2cccc2)sc2c1CCN(C)C2 (stereo not given) | 2.1%
Cc1ccc2oc(C(=O)Nc3cccc(Cl)c3)cc(=O)c2c1 | -0.4%
Cc1ccc(Nc2nc3c(S(=O)(=O)c4ccccc4)nnn3c3ccsc23)c(C)c1 | 2.0%
Cc1ccccc1-c1nc(CN2CCCC(C(=O)NCc3ccc(Cl)cc3)C2)c(C)o1 (stereo not given) | 5.3%
COc1cc(C2c3c(-c4ccccc4O)n[nH]c3C(=O)N2Cc2ccncc2)ccc1O (stereo not given) | -2.5%
CCCCc1cc(=O)oc2cc(C)c3c(C)coc3c12 | -9.6%
Cc1ccc(C)c(N2CCN(C(=O)CCS(=O)(=O)c3ccc4c(c3)CC(=O)N4C)CC2)c1 | 8.8%
COc1cc(C(CC(=O)NCCC(C)C)N2Cc3ccccc3C2=O)cc(OC)c1OC (stereo not given) | -4.7%

Reformatted: results already given.
structure	miR-21 reporter
Cc1ccccc1-c1nc(CN2CCCC(C(=O)NCc3ccc(Cl)cc3)C2)c(C)o1 (stereo not given)	5.3%
COc1cc(C2c3c(-c4ccccc4O)n[nH]c3C(=O)N2Cc2ccncc2)ccc1O (stereo not given)	-2.5%
CCCCc1cc(=O)oc2cc(C)c3c(C)coc3c12	-9.6%

(cont.)
SMILES | miR-21 reporter
O=C(Cn1c(=O)c2cccn2c2cccnc21)NCc1ccccc1F | -39.5%
Cc1ccc2nc(NC3=NC(CC(=O)O)C(=O)N3)nc(C)c2c1 (stereo not given) | -2.5%
COc1cc(Cl)c(C)cc1Nc1nc2ccccc2nc1NS(=O)(=O)c1ccccc1 | -29.1%
COc1cc(CN(C(=O)c2ccc(Cl)cc2)C2CCS(=O)(=O)C2)cc(OC)c1OC (stereo not given) | -6.0%
Cc1cccc(C(=O)Nc2cc3c(cc2N2CCCCC2)n(C)c(=O)n3C)c1 | 0.6%
CC1CCN(Cc2c(O)ccc3c(=O)c(Oc4ccccc4Cl)c(C(F)(F)F)oc23)CC1 | -1.8%
COc1ccc(NCc2cc3cc4c(cc3n(CC(=O)Nc3ccc(C)cc3)c2=O)OCO4)cc1 | -8.6%
CCCCNC(=O)Cn1c(=O)cc(C)c2c(C)nn(-c3ccc(CC)cc3)c21 | 10.2%
Cc1c(Cl)cccc1N1CC(c2nc3ccccc3n2Cc2ccccc2F)CC1=O (stereo not given) | 24.9%
COc1ccc(NC(=O)c2c(C)oc3ccc(O)c(CN4CCC(C)CC4)c23)cc1 | 4.3%
COc1cc(NC(=O)CNS(=O)(=O)c2cccs2)cc(OC)c1OC | 2.7%
Cc1ccc(C)c(CN2C(=O)c3ccccc3S(=O)(=O)c3ccc(C(=O)N4CCN(c5ccccc5F)CC4)cc32)c1 | 4.3%
Cc1ccnc(NS(=O)(=O)c2cc(-c3cc(C)no3)ccc2C)c1 | -9.8%
COc1ccc(C(=O)NCCn2cc(SCc3cc(C)ccc3C)c3ccccc32)cc1 | u
Cc1ccc(S(=O)Cc2ccc(C(=O)NC3CCCCCC3)o2)cc1 (stereo not given) | u
CCOc1ccc(Nc2oc(-c3ccc(COc4ccc(C)cc4)o3)nc2C#N)cc1 | -13.8%
CCOc1ccccc1NC(=O)Cn1cc(C(=O)c2cccc(OC)c2)c(=O)c2ccc(C)nc21 | -3.8%
Cc1ccc(Nc2nc(C)c(NC(=O)c3ccc(C)cc3)c(Nc3ccc(C)cc3)n2)cc1 | u
COc1cccc(N2CCN(Cc3cc(=O)oc4cc(C)ccc34)CC2)c1 | 6.3%
Cc1cccc(-n2c(N)cc(=O)nc2SCC(=O)Nc2ccc(F)cc2)c1C | 1.2%
Cc1cccc(-c2nc(SCC(=O)Nc3ccc4c(c3)OCCO4)c(-c3ccccc3)[nH]2)c1 | u
CCOC(=O)C1CCCN(C(=O)CCS(=O)(=O)c2cc3c(cc2Cl)NC(=O)CO3)C1 (stereo not given) | -32.0%
COc1ccc(CNC(=O)CN2C(=O)CCn3nc(-c4cn(C)c5ccccc45)cc32)cc1 | 3.1%
O=C(Nc1cc(Cl)cc(Cl)c1)c1ccc(F)c(S(=O)(=O)NC2CCCCC2)c1 | 16.1%
Cc1cc(C)c2c(c1)c(C)cc1nnc(SCC(=O)c3ccc(F)cc3)n12 | -7.4%
CCOc1ccc(CCNC(=O)c2cnc3c(-c4ccc(F)cc4)c(C)nn3c2C)cc1 | 2.4%
COCCNC(=O)c1cc(Sc2ccc(F)cc2F)nc2ccccc12 | 0.8%
CCc1ccccc1NC(=O)CC(c1ccc(F)cc1)N1Cc2ccccc2C1=O (stereo not given) | u
COc1ccc(N2CC(NC(=O)c3ccc(S(=O)(=O)N4CCCCC4)cc3)CC2=O)cc1OC (stereo not given) | 2.5%
CC1Cc2ccccc2N1C(=O)CSc1nc2ccc(NC(=O)COc3ccccc3)cc2s1 (stereo not given) | 15.9%

Overlap with the part before: 4 entries, then new ones.
SMILES | miR-21 reporter
COCCNC(=O)c1cc(Sc2ccc(F)cc2F)nc2ccccc12 | 0.8%
CCc1ccccc1NC(=O)CC(c1ccc(F)cc1)N1Cc2ccccc2C1=O (stereo not given) | u
COc1ccc(N2CC(NC(=O)c3ccc(S(=O)(=O)N4CCCCC4)cc3)CC2=O)cc1OC (stereo not given) | 2.5%
CC1Cc2ccccc2N1C(=O)CSc1nc2ccc(NC(=O)COc3ccccc3)cc2s1 (stereo not given) | 15.9%
COc1ccc(C)cc1NS(=O)(=O)c1ccc2c(c1)[C@H]1C=CC[C@H]1[C@@H](c1cccc(Cl)c1)N2 | -0.3%
Cc1ccc(NC(=O)C2CCCN(c3ncnc4onc(-c5ccc(F)cc5)c34)C2)c(Cl)c1 (stereo not given) | -3.3%
Cc1ccc2sc(N(Cc3cccnc3)C(=O)CCS(=O)(=O)c3ccccc3)nc2c1C | 3.4%
CCOC(=O)C(C)Nc1ncnc2onc(C)c12 (stereo not given) | -3.1%
CCOC(=O)c1ccc(NC(=O)CN(c2ccc(C)cc2)S(=O)(=O)c2ccc(OC)cc2)cc1 | -4.4%
Cn1c2c(c(=O)n(C)c1=O)C(c1cc(Br)ccc1F)CC(=O)N2 (stereo not given) | -1.0%
COc1ccc(C)cc1N(C)C(=O)CCc1nc(-c2ccccc2F)no1 | 6.1%
Cc1ccc(-n2c(=O)c3ccc(C(=O)NCc4ccccc4Cl)cc3n(Cc3cccc(F)c3)c2=O)cc1 | -6.2%
CC(=O)Nc1cccc(NC(=O)c2c(-c3ccccc3)c(-c3ccccc3)nn(C)c2=O)c1 | 16.7%
COc1cc(OC)c(NC(=O)Nc2sc3nc4n(c(=O)c3c2C)CCC(C)CC4)cc1Cl (stereo not given) | -2.2%
Cc1ccc(N2CC(NC(=O)/C=C\c3ccc4c(c3)OCO4)CC2=O)cc1 (stereo not given) | 14.0%
CC(C)(C)NC(=O)CSc1nc(-c2ccc(F)cc2)cc(C(F)(F)F)n1 | 10.2%
CCCOc1cccc(C(=O)Nc2cc(-c3ccccc3)no2)c1 | -18.0%
Cc1ccc(NC(=O)Cn2c(=O)nc(-c3ccccc3)c3ccccc32)cc1F | 3.4%
Cc1ccc(NC(=O)Cn2c(=O)ccc3cc(S(=O)(=O)N4CCCC4)ccc32)cc1C | -3.6%
CC1CCCCN1CCCNC(=O)c1[nH]c2ccccc2c1Sc1ccc(Cl)cc1 (stereo not given) | 2.5%
Cc1ccc(NC(=O)CCn2c(=O)c3cccn3c3ccccc32)c(Cl)c1 | -3.3%
CCOC(=O)c1sc2ncn(CC(=O)Nc3ccc(F)cc3F)c(=O)c2c1C | 6.3%
O=C(c1ccc2c(c1)N(Cc1ccc(F)cc1)C(=O)c1ccccc1S2(=O)=O)N1CCCCCC1 | 28.6%
COc1cccc(NC(=O)CSc2ncc(S(=O)(=O)c3ccc(C)c(C)c3)c(=O)[nH]2)c1 | -0.4%
Cc1ccc(F)cc1NC(=O)CCc1c(C)nn(-c2ccc(N3CCOCC3)nn2)c1C | -15.1%
Cc1ccc(C(=O)c2cn(Cc3ccc(Cl)cc3)c3nc(C)ccc3c2=O)cc1 | 4.2%
CCOc1ccc(-c2nnc(SCC(=O)Nc3ccc(C)cc3C)o2)cc1 | -2.3%
CCn1c(=O)n(CC)c2cc(N3CCCCC3)c(NC(=O)Nc3ccccc3Cl)cc21 | 11.3%
CCOC(=O)c1ccc(NC(=O)C(C)N(c2ccc(OCC)cc2)S(C)(=O)=O)cc1 (stereo not given) | -0.2%
Cc1ccc(C)c(N2CCN(C(=O)C3CCCN(Cc4nc(-c5cccc(Cl)c5)oc4C)C3)CC2)c1 (stereo not given) | -0.8%
COc1cc(OC)cc(C(=O)NCCc2csc(-c3cccc(C)c3)n2)c1 | 11.5%
CCOC(=O)c1c(C)oc2nc(C)nc(NCCCN3CCN(c4ccc(F)cc4)CC3)c12 | 4.8%
CCc1c(C)sc2c1CCN(Cc1cccc(OC)c1)C2c1ccccc1 (stereo not given) | u
CCOC(=O)c1ccc2c(c1)N(CC(=O)Nc1cc(F)ccc1F)C(=O)c1ccccc1S2 | 0.8%

Four neighbouring compounds out of the list so far, quoted:
SMILES | miR-21 reporter
Cc1cc(NC(=O)C(C)C)cc(-c2nc3ncccc3o2)c1O | 0.0%
Cc1ccc(C)c(NC(=O)Cn2c(=O)n(CCCS(=O)(=O)C3CCCCC3)c(=O)c3ccccc32)c1 | 5.1%
COc1ccccc1N1CCN(C(=O)C2CCN(S(=O)(=O)c3cccc4nonc34)CC2)CC1 | 6.9%
COc1ccc(-c2ccc(NS(=O)(=O)c3ccccc3)cc2)nn1 | -9.5%

Additional records:
SMILES | miR-21 reporter
CC(C)CN(CCNC(=O)c1cc(-c2cccs2)nc2ccccc12)CC(C)C | -1.8%
CCN(CC)S(=O)(=O)c1nnc(NC(=O)COc2ccccc2Cl)s1 | -41.0%
CN(C(=O)CSc1nc2ccc(NC(=O)CCc3ccccc3)cc2s1)c1ccccc1 | u
Cc1cc(NC(=O)Cc2ccccc2)cc(-c2nc3ccccc3o2)c1O | -3.3%
COc1ccc(Cl)cc1NC(=O)C(C)Sc1nc2c(c(=O)[nH]1)CCCC2 (stereo not given) | -0.2%
CCc1ccc(NC(=O)C2CCN(c3nn4c(=O)cc(C)nc4s3)CC2)cc1 | -0.7%
CCc1ccc(CN2CCc3nc(Nc4ccccc4)ncc3C2)cc1 | -1.6%
CC(C)c1ccccc1NC(=O)CN1C(=O)c2cccc3cccc1c23 | -7.1%
CCOC(=O)c1c(C)c(C(=O)NCCc2ccc(OC)cc2)c(C)n1C | 3.0%
Cc1ccccc1OCC(=O)Nc1ccc(S(=O)(=O)Nc2ncccn2)cc1 | -16.2%
Cc1ccc2nc(-c3ccncc3)c(Nc3ccc(C(C)C)cc3)n2c1 | -1.8%
COc1ccc(-c2noc(CSc3nnc(C)n3-c3cccc(C)c3)n2)cc1 | -2.9%
COc1ccc(-n2c(=O)c3c4c(sc3n(Cc3ccc(C(C)(C)C)cc3)c2=O)CCC4)c(OC)c1 | 3.7%
O=C(NCC(c1cccs1)S(=O)(=O)c1cccs1)c1c(F)cccc1F (stereo not given) | -3.2%
CC(C)NC(=O)c1ccc(-n2c(-c3ccccc3)cc3c2CCCCC3)cc1 | 28.4%
Cc1nc(N2C(=O)c3oc4ccccc4c(=O)c3C2c2cccc(OCCC(C)C)c2)sc1C (stereo not given) | 1.9%

This is a subset; rates above refer to the full screens.
